# Source: PubChem
# HSV augment = increases HSV replication in cells | AID 1956 | 220,000 tested, 0.005% active | HSV replication augmentation in cells, fold increase | maximum fold increase;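 active = peak rise of 1.5-fold or more in the series; tested in PC3 cells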;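 note: first round at 10 µM; read as green reporter fluorescence; hits show the peak of a series up to 25 µM; 1 = signal of infected wells without compound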
# GALR2 agonist = activates the human galanin receptor 2. O43603. activation, %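 (tested at 5 µM)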. GALR2-expressing cells, agonist activation read-out. 140,000 tested, 0.48% active;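 active = above mean plus 3 SD of all compounds, about 5% in these data, not always enough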;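 note: 0% = vehicle buffer wells and 100% = reference agonist at full effect; tested in CHO reporter cells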
# Target sequence (O43603 whole entry, looked up): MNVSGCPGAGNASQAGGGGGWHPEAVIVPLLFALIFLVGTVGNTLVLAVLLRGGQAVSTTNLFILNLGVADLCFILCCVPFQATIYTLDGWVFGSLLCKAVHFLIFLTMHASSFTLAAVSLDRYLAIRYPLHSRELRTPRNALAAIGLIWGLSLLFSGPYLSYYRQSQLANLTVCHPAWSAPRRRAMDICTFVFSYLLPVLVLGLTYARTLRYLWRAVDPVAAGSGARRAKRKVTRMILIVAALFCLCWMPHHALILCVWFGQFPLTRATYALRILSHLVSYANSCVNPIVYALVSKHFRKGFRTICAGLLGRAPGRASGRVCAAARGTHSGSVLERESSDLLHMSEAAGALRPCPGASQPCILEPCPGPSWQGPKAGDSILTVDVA
# PKD1 kinase inh = inhibitors of human PKD1 kinase. inhibition, %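 (about 10 µM by stock and volumes)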. 200,000 tested, 0.056% active. PKD1 kinase fluorescence polarization assay. AID 797. Q15139;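 active = inhibition of 50% or more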;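 note: controls were vehicle for no effect and a reference inhibitor for full effect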
# RGS16-Gao = modulates binding between human RGS16 and Galphao | binding response (% of control), % at 10 µM | bead-based flow cytometry RGS16-Galphao binding, fluorescence; actives lie on both sides | O15492+P09471 | AID 1441 | 220,000 tested, 0.38% active;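 active = below 25% or above 175%, edge rows of some plates excepted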;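 note: Galphao activated by GDP with aluminum fluoride before binding; 100% = wells without compound and 0% = beads without RGS; some results beyond the cut were filed as inactive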
# Target sequence (O15492 whole entry, looked up): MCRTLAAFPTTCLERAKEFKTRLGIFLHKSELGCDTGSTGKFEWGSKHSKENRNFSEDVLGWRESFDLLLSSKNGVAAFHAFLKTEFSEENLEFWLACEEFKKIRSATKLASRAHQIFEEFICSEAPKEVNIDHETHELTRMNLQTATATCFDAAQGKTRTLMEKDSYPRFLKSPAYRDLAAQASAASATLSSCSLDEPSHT
# Target sequence (P09471 whole entry, looked up): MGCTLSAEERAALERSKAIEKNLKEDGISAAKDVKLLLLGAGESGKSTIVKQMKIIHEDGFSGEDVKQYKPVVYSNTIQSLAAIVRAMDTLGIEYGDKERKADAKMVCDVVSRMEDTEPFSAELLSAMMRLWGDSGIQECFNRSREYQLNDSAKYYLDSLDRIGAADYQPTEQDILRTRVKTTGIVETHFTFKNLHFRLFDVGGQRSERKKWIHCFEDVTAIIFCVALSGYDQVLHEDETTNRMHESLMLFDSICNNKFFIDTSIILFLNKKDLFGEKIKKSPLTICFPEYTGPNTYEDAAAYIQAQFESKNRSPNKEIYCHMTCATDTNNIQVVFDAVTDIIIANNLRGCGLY
# Insulin prom inh = TRM-6 insulin promoter activity inhibition; TRM-6 cells (human fetal islet line), insulin promoter-eGFP reporter, imaging; reporter expression induced with tamoxifen; inhibition, % at 2 µM; 130,000 tested, 0.9% active; AID 1273;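 active = inhibition above the mean plus 3 SD, with well images judged a real hit on visual review, cut at about 60% in these data, passing the limit was not always enough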
# Insulin prom inh cell count = recorded beside Insulin prom inh, whose call it bears; normalized cell count, %; measured here: cell count, toxicity; reference of the scale not given here;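 cells exposed to compound for 48 h; stained nuclei by imaging scaled within each plate; lower means fewer cells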
# HSV augment primary fold = recorded beside HSV augment, whose call it bears; fold increase; compound at 10 µM; measured here: primary screen fold increase 10 uM; tested in PC3 cells;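 GFP signal in the first replicate; 1 = infected wells without compound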
# * marks the source's active call; other numbers are inactive results; i = inactive; / = no result given.
SMILES,HSV augment,HSV augment primary fold,GALR2 agonist,PKD1 kinase inh,RGS16-Gao,Insulin prom inh,Insulin prom inh cell count
COCCn1c(C)cc(C(=O)CSc2nnc(-c3cccnc3)n2-c2ccccc2F)c1C,i,0.98,-2.2,4,192,/,/
CN1C(=O)C(CCC(N)=O)NC1=S (stereo not given),i,0.81,/,/,99,/,/
O=C(NCc1ccncc1)C(=O)NCC(c1ccco1)N1CCN(c2ccccc2)CC1 (stereo not given),i,1,/,-9,99,/,/
CC(=O)Nc1ccc(NC(C)=C(C#N)C#N)cc1,i,0.91,-0.5,-6,104,47,192
Nn1cnnc1N/N=C/c1cc([N+](=O)[O-])c(Cl)cc1Cl,/,/,-1.5,-2,70,/,/
O=c1c2ccccc2n2c(-c3cccc(Cl)c3)nnc2n1Cc1ccccc1,i,0.97,-1.2,1,97,/,/
COc1cc(NC(=O)CSc2nnnn2-c2ccccc2)cc(OC)c1OC,i,1.2,-1.4,-4,110,-50,108
COc1cc(/C(C)=N/NC(=O)c2ccc(CSc3nncn3C)cc2)cc(OC)c1OC,i,0.88,/,-11,101,13,100
O=C(O)c1ccc(OC2CSC2)cc1,i,1,-0.6,-2,105,-22,169
Oc1cc2c(cc1C(c1ccc(Cl)c(Cl)c1)N1CCCC1)OCO2 (stereo not given),i,0.9,/,2,90,-21,118
Cc1ccc2c(c1)N(CC(=O)O)C(=O)CO2,i,0.67,0.0,13,102,/,/
CC(/C=C/c1ccccc1)=N\Nc1nc2c(c(=O)[nH]c(=O)n2C)n1CCO,i,0.98,/,/,93,/,/
Cc1ccc(/C(O)=C2\C(=O)C(=O)N(c3cc(C)on3)C2c2cccc(Cl)c2)cc1 (stereo not given),i,0.99,0.1,7,102,46,123
Oc1cccc(C2c3[nH]c4ccccc4c3CCN2Cc2ccc3c(c2)CCO3)c1 (stereo not given),i,0.87,/,-8,95,/,/
Cc1ccccc1-n1c(SCc2c(C)noc2C)nnc1-c1cccnc1,i,1.2,-4.3,-2,154,15,110
Cc1c(C(=O)OCC(=O)NCC2CCCO2)cccc1[N+](=O)[O-] (stereo not given),i,0.89,/,5,97,/,/
N#CC1=C2SCN(Cc3ccco3)CN2C(=O)CC1c1cccc2ccccc12 (stereo not given),i,1.1,-3.1,8,73,45,104
COc1ccc(Cl)cc1NC(=S)NCCc1ccc(S(N)(=O)=O)cc1,i,0.88,/,1,104,/,/
CCOC(=O)COc1c(Br)cc(/C=C2\SC(=O)N(CC(=O)N3CCCC3)C2=O)cc1OC,/,/,-1.7,7,103,-2,136
O=C(Nc1nc(-c2ccccc2)cs1)C1CCCCN1S(=O)(=O)c1ccccc1 (stereo not given),i,0.83,-1.4,-17,101,3,174
Nc1ncnc2c1ncn2[C@@H]1O[C@H](CO)[C@@H](O)[C@H]1O,i,0.96,0.2,-4,107,5,154
O=C(Nc1nnc(-c2cccs2)o1)c1ccc(S(=O)(=O)N2CCOCC2)cc1,i,0.98,/,-1,98,-6,94
CC(=O)C1C(c2ccc(Cl)cc2)c2c(n[nH]c2C)CC1(C)O (stereo not given),i,0.95,/,1,81,6,108
Cc1ccc(-n2[nH]c(C)c(/C=N/c3cccc(C)n3)c2=O)cc1,i,1.2,/,/,101,/,/

# Reprinted at random: five compounds from above.
SMILES,HSV augment,HSV augment primary fold,GALR2 agonist,PKD1 kinase inh,RGS16-Gao,Insulin prom inh,Insulin prom inh cell count
Cc1ccccc1-n1c(SCc2c(C)noc2C)nnc1-c1cccnc1,i,1.2,-4.3,-2,154,15,110
Cc1c(C(=O)OCC(=O)NCC2CCCO2)cccc1[N+](=O)[O-] (stereo not given),i,0.89,/,5,97,/,/
CC(=O)C1C(c2ccc(Cl)cc2)c2c(n[nH]c2C)CC1(C)O (stereo not given),i,0.95,/,1,81,6,108
CCOC(=O)COc1c(Br)cc(/C=C2\SC(=O)N(CC(=O)N3CCCC3)C2=O)cc1OC,/,/,-1.7,7,103,-2,136
COc1ccc(Cl)cc1NC(=S)NCCc1ccc(S(N)(=O)=O)cc1,i,0.88,/,1,104,/,/

# Next part.
SMILES,HSV augment,HSV augment primary fold,GALR2 agonist,PKD1 kinase inh,RGS16-Gao,Insulin prom inh,Insulin prom inh cell count
CCCSC1=C(C#N)C(c2cccs2)C(C(=O)Nc2ccccc2)=C(C)N1 (stereo not given),i,0.93,-1.4,3,60,-258,106
Cc1ccccc1NC(=O)CN1CCC(n2nnc3ccccc32)CC1,i,1,-0.2,-3,106,21,47
Nc1ccc(Oc2ccc3c(c2)OCO3)cc1,i,0.82,/,-7,99,/,/
O=C(CCN1CCN(C(c2ccccc2)c2ccccc2)CC1)N/N=C/c1ccc(O)cc1,i,0.95,-0.9,-12,102,/,/
Cc1[nH]c2c(C)cccc2c1CCNC(=O)c1ccc2c(c1[N+](=O)[O-])C(=O)c1ccccc1C2=O,i,0.74,-0.8,4,94,-30,115
COC(=O)c1cc(C(=O)OC)cc(N2C(=O)CC(NNC(=O)c3ccc(C)cc3)C2=O)c1 (stereo not given),i,0.99,-1.8,-5,100,48,80
CNC(=S)N(Cc1ccc(OC)cc1)C1CC(=O)N(c2ccc(OC)cc2)C1=O (stereo not given),i,0.86,-1.4,-3,87,/,/
O=C(CSC1=Nc2ccccc2C2=NC(c3ccccc3)C(=O)N12)NCC1CCCO1 (stereo not given),i,0.99,-0.1,6,51,10,115
O=C(CC1NCCNC1=O)OCc1ccccc1 (stereo not given),i,0.94,-3.6,-10,96,-79,142
COc1ccc(NC(=O)CN2CCC(n3c(C)nc4cc(F)ccc43)CC2)c(OC)c1,/,/,1.1,-15,110,/,/
CCOC(=O)CNC(=O)CSc1nc2cccnc2n1CC,i,1.1,-1.1,3,/,66,115
Fc1cccc(NC(=S)NCCN2CCOCC2)c1,i,0.92,0.0,-10,92,-21,82

# A second format for some results above.
mol | HSV augment | HSV augment primary fold | GALR2 agonist | PKD1 kinase inh | RGS16-Gao | Insulin prom inh | Insulin prom inh cell count
O=C(CC1NCCNC1=O)OCc1ccccc1 (stereo not given) | i | 0.94 | -3.6 | -10 | 96 | -79 | 142
O=C(CSC1=Nc2ccccc2C2=NC(c3ccccc3)C(=O)N12)NCC1CCCO1 (stereo not given) | i | 0.99 | -0.1 | 6 | 51 | 10 | 115

# (list continues)
SMILES,HSV augment,HSV augment primary fold,GALR2 agonist,PKD1 kinase inh,RGS16-Gao,Insulin prom inh,Insulin prom inh cell count
CCn1c(=O)c(=O)[nH]c2cc(C(=O)NC3CC3)ccc21,i,1,-0.1,-6,134,-17,89
CCCCNC(=O)NCC(=O)Nc1ccc(F)c(F)c1,i,1,-1.8,-6,95,-50,145
Cc1cc(C)c2c(=O)[nH]c(SCC(=O)N(C)C)nc2n1,i,1,-0.7,-12,99,3,134
Cn1ncc([N+](=O)[O-])c1C(=O)Nc1ccn(Cc2ccccc2F)n1,i,0.89,-0.5,-1,95,-13,150
CCn1c(SCC(=O)c2ccc(Cl)cc2)nnc1-c1ccoc1C,i,0.94,-0.9,4,93,-46,97
CNC(=S)NNC(=O)Cc1ccc(OC)cc1,i,1.1,/,/,93,/,/
CC(=O)NC1C(=O)N=C(SCC(=O)Nc2c(C)cccc2C)NC1=O (stereo not given),i,1.1,/,1,103,/,/
COc1cc(C(=O)NCCc2cn3ccccc3n2)cc(OC)c1OC,i,0.95,-3.2,1,103,/,/
C/C=C(\C)C(=O)Nc1cccc(C2=NOC3(C2)C[C@@H](C(N)=O)N(C(=O)c2cc([N+](=O)[O-])cc([N+](=O)[O-])c2C)C3)c1 (stereo not given in full),i,1,/,/,98,/,/
O=C(O)/C=C/c1coc2ccc(F)cc2c1=O,i,0.97,-0.8,-3,102,38,86
O=c1oc2ccccc2cc1N1CCOCC1,i,1.1,0.3,7,101,-45,139
CCCn1c(SCC(=O)NCc2ccccc2Cl)n[nH]c1=O,i,0.97,/,-3,99,/,/
Cc1cc(C)nc(NC(=O)c2csnn2)c1,i,0.87,/,4,107,56,100
O=C(/C=C/c1ccc(Cl)c([N+](=O)[O-])c1)Nc1ccc(N2CCCC2)cc1,i,0.92,-1.2,-8,96,13,133
O=C(NCCC1=CCCCC1)c1cccc2c1C(=O)N(C1CCCCC1)C2,i,1,/,6,107,33,133
N/C(=N\OC(=O)c1ccc(F)cc1)c1ccc(Br)cc1,i,1,/,9,97,/,/
c1cncc(Nc2nc(-c3cccs3)cs2)c1,i,1.3,-0.9,-9,107,50,100
CCc1ccc(C(=O)NNc2ccccc2F)cc1,i,0.91,/,/,106,/,/
CC(=O)NC(=O)NC1OC(=O)C(Cl)=C1Cl (stereo not given),i,1,-0.9,-1,88,/,/
COc1ccc(-c2nnc(SCc3cc(C)ccc3C)n2N)cc1,i,0.68,-1.3,-10,81,9,216
Cc1cc(C(=O)NCCN2CCN(c3cccc(Cl)c3)CC2)n(-c2ccccc2)n1,i,0.48,-0.8,-7,114,/,/
S=c1[nH]nc(-c2ccco2)n1-c1ccc(Cl)cc1,i,0.97,/,-7,99,/,/
Cc1nc([N+](=O)[O-])c(N2CCN(Cc3ccccc3)CC2)n1Cc1ccccc1,i,1,-1.1,-5,101,13,74
CC(=O)Oc1ccc(/C=N/NC(=O)C2CCCN2S(=O)(=O)c2ccc(Cl)cc2)cc1 (stereo not given),i,0.96,-0.4,5,102,7,81
O=C(CCOc1ccccc1)N1CCN(c2ccc(O)cc2)CC1,i,0.92,/,/,100,/,/
Cc1ccc(N=CC2=C(O)CC(c3ccccc3Cl)CC2=O)cc1 (stereo not given),i,0.93,/,/,99,/,/
COc1ccc(C(=O)N2CCN(c3ccccn3)CC2)cc1,i,0.83,-0.1,-4,102,-22,101
CCCCc1c(O)nc(SCC(=O)Nc2ccc3c(c2)CCC3)[nH]c1=O,i,0.89,-1.8,-8,95,/,/
COc1ccc(OC)c(S(=O)(=O)N(C(C)=O)c2ccc3oc(=O)sc3c2)c1,i,0.89,/,-2,108,58,118
COc1cc(OC)nc(NC(=O)CSc2nnc(-c3ccccc3)n2C2CCCCC2)n1,i,0.94,-1.2,-1,/,24,106
C=CCNC(=S)NNC(=O)c1cccn(Cc2ccc(Cl)cc2Cl)c1=O,i,0.86,-1.1,-14,98,-3,139
Cc1cccc(NC(=O)Cn2c(O)c(N=NC(=O)c3ccccc3O)c3ccccc32)c1,/,/,4.8,12,95,/,/
COc1ccc(CCNC(=O)COC(=O)c2cnc(C)cn2)cc1OC,i,1.1,-2.0,5,94,/,/
Cn1c(=O)n(C)c2cc(NS(=O)(=O)c3cccs3)ccc21,i,0.91,/,2,104,/,/
CC(C)c1nc(C#N)c(NN)o1,i,1,/,/,100,/,/
O=C(CSc1ccc(-c2ccccc2)nn1)c1ccccc1,i,1.2,-0.1,4,101,/,/
CCOc1cc(C2C3=C(CCCC3=O)NC3=C2C(=O)CCC3)cc(Cl)c1O,i,0.88,/,/,100,/,/
CCc1ccccc1NC(=O)c1ccoc1C,i,1,-1.6,7,99,35,218
O=C(CCc1ccc(S(=O)(=O)N2CCCCC2)cc1)c1nnc(-c2ccccc2)o1,i,0.93,-0.3,-5,105,-23,76
COc1ccc(CNC(NC(=O)c2ccccc2)(C(F)(F)F)C(F)(F)F)cc1,i,0.87,-1.6,12,89,/,/
COc1ccc(NC(=S)NC23CN4CN(CN(C4)C2)C3)cc1,i,1.1,-0.5,2,91,-54,106
Cc1ccc(C)c(N2CCN(C(=O)CCS(=O)(=O)c3cccc4nonc34)CC2)c1,i,0.95,-1.6,-4,99,-44,83
O=C(C1=C[C@H](c2ccc3c(c2)OCO3)C[C@H](OCc2ccc(CO)cc2)O1)N1CCN(Cc2ccc3c(c2)OCO3)CC1,i,0.85,/,2,98,/,/
CS(=O)(=O)N1CCC(C(=O)N2CCN(Cc3ccccc3)CC2)CC1,i,0.93,/,-2,101,-438,87

# An excerpt from above in order of the RGS16-Gao value, largest number first.
Compound	RGS16-Gao
O=C(CCc1ccc(S(=O)(=O)N2CCCCC2)cc1)c1nnc(-c2ccccc2)o1	105
CCOc1cc(C2C3=C(CCCC3=O)NC3=C2C(=O)CCC3)cc(Cl)c1O	100
Cc1ccc(C)c(N2CCN(C(=O)CCS(=O)(=O)c3cccc4nonc34)CC2)c1	99
O=C(C1=C[C@H](c2ccc3c(c2)OCO3)C[C@H](OCc2ccc(CO)cc2)O1)N1CCN(Cc2ccc3c(c2)OCO3)CC1	98
COc1ccc(NC(=S)NC23CN4CN(CN(C4)C2)C3)cc1	91
COc1ccc(CNC(NC(=O)c2ccccc2)(C(F)(F)F)C(F)(F)F)cc1	89
